High-throughput results: PubChem, several laboratories
MT1-MMP reporter: inhibitors of MT1-MMP promoter transcription, cell-based, luciferase reporter, luminescence (AID 618); calls from a first round at 10 µM; hits with a dose series show EC50 in µM; hit rate 0.62% among 87,000; MT1-MMP promoter luciferase reporter cells, luminescence;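 active = over half of the reporter light lost at 10 µM or EC50 under 50 µM; inactive = the rest and hits that failed the dose series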;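 also: actives suppress MT1-MMP promoter-driven transcription so potencies describe inhibitors; HT1080 fibrosarcoma cells; overnight exposure; toxic or luciferase-blocking compounds were not removed from the actives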
Hsc70 ATP site: Hsc70 inhibitors, probe displacement, primary screen, biochemical, fluorescence polarization (AID 568); Hsc70 fluorescence polarization, probe displacement; higher % means a stronger effect; strong numbers were not always called active; displacement, % at 20 µM; hits with a dose series show IC50 in µM; Heat shock cognate 71 kDa protein (Homo sapiens); 83,000 tested, under 10 active;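 active = displacement above 50% without optical interference and an IC50 on retest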;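 also: ATPase domain with a fluorescein-tagged ATP probe; 0% = vehicle and 100% = excess ADP; read after one hour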
WNV NS2B-NS3 inh: inhibitors of WNV NS2B-NS3 protease, primary screen, biochemical, fluorogenic substrate. AID 577, 2007. hit rate 0.18% among 65,000. Genome polyprotein (West Nile virus), P06935. fluorogenic substrate Ex360/Em465; stronger effect = lower value. z-score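 (tested at a level between 10 and 100 µM)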;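 active = z-score at -3 or under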;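 also: score is relative to mean and spread of the compound wells of a plate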
Target sequence (P06935 1371-1501 limits assumed): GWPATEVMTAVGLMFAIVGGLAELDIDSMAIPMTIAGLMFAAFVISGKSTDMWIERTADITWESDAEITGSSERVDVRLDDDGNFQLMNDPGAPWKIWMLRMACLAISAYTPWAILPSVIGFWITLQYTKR
Target sequence (P06935 1502-1679 limits assumed): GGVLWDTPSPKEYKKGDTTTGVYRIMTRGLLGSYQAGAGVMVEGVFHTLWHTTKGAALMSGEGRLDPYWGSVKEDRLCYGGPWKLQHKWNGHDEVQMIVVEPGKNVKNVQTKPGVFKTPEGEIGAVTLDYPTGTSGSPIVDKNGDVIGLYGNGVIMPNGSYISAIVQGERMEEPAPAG
* hit, by the source's call; i = inactive; . = no result given; + = active, no number.

SMILES	MT1-MMP reporter	Hsc70 ATP site	WNV NS2B-NS3 inh
CCOc1ccc(C2C(C(=O)c3ccco3)=C(O)C(=O)N2CCCn2ccnc2)cc1 (stereo unspecified)	i	1.2%	-0.29
COc1ccc(OC)c(S(=O)(=O)Nc2ccc(C(N)=O)cc2)c1	i	-2.1%	-1.2
CCCCC(=O)NC(=S)NNC(=O)CC#N	i	-2.5%	.
Cc1cc(=O)oc2cc(OCC(=O)N3CC(C)OC(C)C3)ccc12 (stereo unspecified)	i	0.5%	.
c1ccc(COc2cccc(CNn3cnnc3)c2)cc1	i	1.9%	0.36
O=[N+]([O-])c1ccc2c(c1)oc1ccccc12	i	-0.2%	.
CCn1c(=N)n(CC(=O)OC)c2ccccc21	i	-0.2%	-0.4
O=S(=O)(c1ccc2c(c1)nc1n2CCC1)N1CCOCC1	i	4.0%	-0.09
COc1ccc(N(CC(=O)NC2CCCCC2)C(=O)CCCC(=O)Nc2ccccn2)c(OC)c1	i	-6.7%	-0.34
O=S(=O)(c1ccc2oc3ccc(S(=O)(=O)N4CCCC4)cc3c2c1)N1CCCC1	i	-0.2%	-0.09
O=c1[nH]c2cc3c(cc2cc1CN(CCO)S(=O)(=O)c1ccccc1Cl)OCCO3	i	4.2%	.
Cc1cc(NC(=O)CN2C(=O)CC(c3ccco3)Sc3ccccc32)no1 (stereo unspecified)	i	2.0%	0.15
CC1CCN(S(=O)(=O)c2ccc(S(=O)(=O)NCC(=O)C(C)(C)C)cc2)CC1	i	4.7%	1.4
CCc1nnc(NC(=O)C2CC(=O)N(CCc3ccccc3)C2)s1 (stereo unspecified)	i	-3.8%	-0.48
C(=N\C(/N=C/c1ccco1)c1ccco1)/c1ccco1	i	-4.8%	-0.1
CCc1ccc(N2C(=O)c3sc4nnc(-c5ccccc5)c(=O)n4c3C2=O)cc1	i	3.4%	.
CN1c2ccccc2-c2nc3ccccc3n2C1c1ccco1 (stereo unspecified)	i	4.7%	-0.45
Cc1ccc(Nc2cc(-n3nc(C)cc3C)ncn2)cc1	i	-1.3%	-0.6
CC(=O)c1sc(-c2c(C)nc3sccn23)nc1C1CCCC1	i	-1.4%	-0.49
CC1(C)C2CCC1(C)C(NC(=O)CCN1CCCCC1)C2 (stereo unspecified)	i	0.3%	0.37
CCOc1ccc(OCCOCCn2ccnc2)cc1	i	-8.1%	.
COc1ccc(Cl)cc1NC(=O)N1CCN(S(C)(=O)=O)CC1	i	-6.1%	0.01
O=C(Nc1ccc2c(c1)OCCO2)c1ccccc1F	i	2.5%	-0.69
O=C1CSC(=O)N1CCOCCN1C(=O)CSC1=O	i	-1.8%	-0.49
CCc1cccc(NC(=O)Cn2cc3c(n2)CCCC3)c1	i	3.1%	-0.18
CCN(CC(=O)Nc1ccc(N2CCOCC2)cc1)Cc1nc2ccccc2c(=O)[nH]1	i	1.7%	.
O=C(c1ccc(NC(=O)C2(c3ccccc3)CCOCC2)cc1)N1CCOCC1	i	-2.1%	0.17
CSCCC(NC(N)=O)C(=O)N(C)CC(=O)Nc1ccc(C)cc1 (stereo unspecified)	i	4.6%	-0.68
CCOC(=O)CCc1c(C)nc(SCCN2CCCC2)c(C#N)c1C	i	12%	0.02
C=CCn1c(CCCNC(=O)CCC)nc2ccccc21	i	3.2%	.
O=C1c2oc3ccc(Cl)cc3c(=O)c2C(c2ccco2)N1CCN1CCOCC1 (stereo unspecified)	i	-0.3%	1.7
COc1ccc(C2CC(=O)C(C=NCCN3CCOCC3)=C(O)C2)cc1 (stereo unspecified)	i	-0.7%	-0.48
CCOC(=O)c1cnc2ccc(OCC)cc2c1N1CCN(c2ccccc2)CC1	i	1.9%	.
COc1ccc(S(=O)(=O)Nc2c(C)n(C)n(-c3ccccc3)c2=O)cc1	i	-6.4%	0.68
CCCCN(CC)C(=O)Cn1cnc2ccc(S(=O)(=O)N3CCC(C)CC3)cc2c1=O	i	5.3%	.
Cc1cccc(N(CC(=O)NCC2CCCO2)C(=O)CCC(=O)Nc2cc(C)on2)c1 (stereo unspecified)	i	0.3%	1.3
Cc1occc1C(=O)N1CCN(c2ncccn2)CC1	i	-0.2%	0.46
Cc1ccc(OCC(=O)NCC(=O)n2nc(C)cc2C)cc1	i	-3.6%	0.01
CC(C)N1C[C@@]23C=C[C@@H](O2)C(C(=O)OCc2ccccc2)[C@H]3C1=O (stereo partly specified)	i	-3.2%	0.08
Cc1cccc(-c2c3c(=O)n(C)c(=O)n(C)c3c3nnc4ccccc4n23)c1	i	-133%	-1.1
Cn1c(=NC(=O)CCl)sc2ccccc21	+	3.5%	.
O=C1CC(C(=O)Nc2ccccc2C(=O)O)C(c2ccccc2)O1 (stereo unspecified)	i	-2.6%	1.3
O=C(CSC(=S)N1CCOCC1)N1N=CCC1c1ccccc1 (stereo unspecified)	i	0.8%	.
CCSc1ccccc1C(=O)N1CCN(c2ccccc2F)CC1	i	-1.2%	-1.3
CN(/N=C/c1c[nH]c2ccccc12)c1cnn(-c2ccc(F)c(Cl)c2)c(=O)c1Cl	i	-34%	.
CCOc1ccc(NC(=O)c2cnccn2)cc1	i	3.5%	.
Cc1cc(=O)n2[nH]c(-c3ccco3)nc2n1	i	4.7%	.
COc1ccc(-c2nc(N)nc(C)c2Oc2ccccc2Br)c(O)c1	i	5.6%	-0.03
COc1ccc(-c2noc(CN3CCN(c4ccccc4F)CC3)n2)cc1OC	i	-1.6%	1.1
Cc1cccnc1NC(=O)Nc1ccc(F)cc1	i	-2.3%	0.93
C[N+](C)(C)CCOP(=O)([O-])OC[C@H](O)CO	i	3.9%	0.81
Cc1c(C(=O)c2ccc(Cl)c(Cl)c2)cnc2cc3c(cc12)OCO3	i	0.7%	.
COc1ccc(NC(=O)c2oc3ccccc3c2NC(=O)C2CC2)cc1	i	-10%	1.2
CCc1ccccc1NC(=O)CSc1nnc([C@@H](NC(=O)OC(C)(C)C)C(C)C)o1	i	0.9%	-1.1
COc1cccc(NC(=O)c2ccccc2-c2nc(-c3ccc(Cl)cc3)no2)c1	i	3.0%	-0.85
COc1cccc(C2c3c(oc4cc(C)c(C)cc4c3=O)C(=O)N2CCCN(C)C)c1 (stereo unspecified)	i	-1.3%	1.5
O=C(OCn1nnc2ccccc2c1=O)c1cccnc1Cl	i	-1.4%	.
COc1cc(NC(=O)c2ccco2)c(OC)cc1NC(=O)CCC(=O)Nc1cc(C)cc(C)c1	i	-5.4%	0.92
Cc1onc(-c2ccccc2Cl)c1C(=O)Nc1nn[nH]n1	i	-2.7%	1.3
CCn1c(SCc2cc(=O)[nH]c3ccccc23)nc2c1c(=O)n(C)c(=O)n2C	i	3.0%	0.44

Given as labelled records: entries from further up
> COc1ccc(-c2nc(N)nc(C)c2Oc2ccccc2Br)c(O)c1
- MT1-MMP reporter: i
- Hsc70 ATP site: 5.6%
- WNV NS2B-NS3 inh: -0.03
> CCn1c(SCc2cc(=O)[nH]c3ccccc23)nc2c1c(=O)n(C)c(=O)n2C
- MT1-MMP reporter: i
- Hsc70 ATP site: 3.0%
- WNV NS2B-NS3 inh: 0.44
> COc1cc(NC(=O)c2ccco2)c(OC)cc1NC(=O)CCC(=O)Nc1cc(C)cc(C)c1
- MT1-MMP reporter: i
- Hsc70 ATP site: -5.4%
- WNV NS2B-NS3 inh: 0.92

The listing picks up with the 6 entries that preceded the break.
SMILES	MT1-MMP reporter	Hsc70 ATP site	WNV NS2B-NS3 inh
COc1cccc(NC(=O)c2ccccc2-c2nc(-c3ccc(Cl)cc3)no2)c1	i	3.0%	-0.85
COc1cccc(C2c3c(oc4cc(C)c(C)cc4c3=O)C(=O)N2CCCN(C)C)c1 (stereo unspecified)	i	-1.3%	1.5
O=C(OCn1nnc2ccccc2c1=O)c1cccnc1Cl	i	-1.4%	.
COc1cc(NC(=O)c2ccco2)c(OC)cc1NC(=O)CCC(=O)Nc1cc(C)cc(C)c1	i	-5.4%	0.92
Cc1onc(-c2ccccc2Cl)c1C(=O)Nc1nn[nH]n1	i	-2.7%	1.3
CCn1c(SCc2cc(=O)[nH]c3ccccc23)nc2c1c(=O)n(C)c(=O)n2C	i	3.0%	0.44
O=C(Nc1nc2c(s1)COc1ccccc1-2)c1cccs1	i	-2.2%	0.11
CCOC(=O)C1=C(c2ccccc2)NC(=O)NC1c1ccc(N(C)C)cc1 (stereo unspecified)	i	-0.2%	-0.31
CCc1cc2c(C)cc(=O)oc2cc1OC(=O)C1CCCN1C(=O)OC(C)(C)C (stereo unspecified)	i	-1.8%	1.6
COCc1nc(-c2ccc(-c3ccc(C)cc3)nc2OC)no1	i	124%	-1
CC(C)C(C)NC(=O)CSc1nc2scc(-c3ccco3)c2c(=O)n1-c1ccccc1 (stereo unspecified)	i	6.5%	.
O=C(c1ccc2c(c1)C(=O)N(Cc1ccco1)C2=O)N1CCOCC1	i	2.4%	-0.41
CSc1ccc2c(c1)N(CCC1CCCCN1C)c1ccccc1S2 (stereo unspecified)	+	1.0%	0.06
COC(=O)c1ccc(OC(=O)c2nn(C)cc2Cl)c(OC)c1	i	6.1%	1.2
Cn1c(SCc2cnc(-c3ccccc3)s2)nnc1C1COc2ccccc2O1 (stereo unspecified)	i	-6.6%	-0.2
CC(C)(C)NC(=O)C(c1ccccc1)N(C(=O)c1ccco1)C1CC1 (stereo unspecified)	i	2.4%	0.69
C/C(N)=C(/C#N)C(=O)CSc1nc2ccc(C)cc2[nH]1	i	-1.7%	-0.01
CC(C)CC(C(=O)OCC(=O)Nc1ncc(Cl)cc1Cl)N1C(=O)c2ccccc2C1=O (stereo unspecified)	i	1.6%	.
CCN(CC)C(=O)N1CCc2ccccc2C1CN1C(=O)c2ccccc2C1=O (stereo unspecified)	i	2.0%	.
O=C(O)c1ccc2c(c1)N(Cc1ccccc1F)C(=O)c1ccccc1S2=O (stereo unspecified)	i	-3.2%	0.3
COc1ccccc1CNC(=O)C(C)NS(=O)(=O)c1ccccc1 (stereo unspecified)	i	1.0%	-0.51
CCCSc1nnc2nc(C)cc(C)n12	i	0.9%	1.9
CN(C)C=C1C(=O)c2ccccc2C1=O	i	3.4%	-0.19
O=C(C1CCN(S(=O)(=O)c2ccc(F)cc2)CC1)N1CC=C(c2ccccc2)CC1	i	3.5%	2.2
Cc1cccc(C)c1NC(=O)CC(NCc1ccco1)C(=O)O (stereo unspecified)	i	-2.2%	-0.9
COc1ccc(S(=O)(=O)Nc2c(C(=O)O)[nH]c3ccccc23)c(OC)c1	i	-3.0%	-1.1
COCCCNC(=O)c1c(-c2ccccc2)noc1C	i	-0.5%	0.11
CCN(CC)c1ccc(C=Nc2ccc(C)cc2)c(O)c1	i	-1.7%	.
CCSc1nc(O)c(Cc2ccccc2)c(=O)[nH]1	i	2.5%	.
CC(=O)c1c[nH]c2ccc(C)cc2c1=O	i	0.4%	-0.79
Cc1ccc(-n2c(C(C)n3nc(C)c([N+](=O)[O-])c3C)n[nH]c2=S)cc1 (stereo unspecified)	i	4.2%	.
O=C(Cn1ccccc1=O)c1cccs1	i	3.8%	-0.42
CCC(C)(C)n1nnnc1C(C(C)C)N1CCC(C(N)=O)CC1 (stereo unspecified)	i	-5.3%	-0.64
O=c1c(Cc2ccccc2)c(O)nc2n1CCS2	i	-6.0%	-0.65
COC(=O)C(NC(C)=O)(Nc1ccccn1)C(F)(F)F (stereo unspecified)	i	-9.3%	-0.17
COC(=O)c1sc(=S)n(-c2cccc(Cl)c2)c1N	i	1.1%	-0.37
COC(=O)c1ccc(Oc2nc3ccccc3n3c(C)nnc23)cc1	i	3.7%	0.75
CC(C)[C@H](NC(=O)OC(C)(C)C)c1nnc(S(=O)(=O)Cc2c(F)cccc2Cl)o1	i	0.2%	0.21
CCOC(=O)CCc1c(C)c2ccc(O)cc2oc1=O	i	6.4%	4.8
CCOC(=O)Cn1c(=O)c2c(nc3n2CCN3c2ccc(C)cc2)n(C)c1=O	i	2.1%	-0.23
CCCCc1cc(=O)oc2c(CN3CCCC3)c(O)ccc12	i	5.3%	8
CCNC(=O)c1c(N)sc2c1CCCCC2	i	-0.6%	-0.47
O=C(CCc1nc(-c2ccccc2F)no1)NCCN1CCN(Cc2ccccc2)CC1	i	-5.3%	-0.69
CC(C)(C)SCCNC(=O)CN(c1ccc(F)cc1)S(C)(=O)=O	i	-3.4%	1.4
CC1CCN(C(=O)C2CCN(CCCc3ccccc3)CC2)CC1	i	3.8%	1.4
O=C(O)CCSc1nnc(-c2cccnc2)n1-c1ccccc1	i	1.4%	.
Cc1ccc(CNC(=O)CCc2nc3ccccc3c(=O)[nH]2)cc1	i	6.9%	-1
COc1ccc(N2CC(O)=C(c3nc(C)cs3)C2=N)cc1	i	-4.1%	-0.29
COc1cc(S(=O)(=O)NCC2COCCO2)ccc1-n1cnnn1 (stereo unspecified)	i	-4.2%	0.2
CCc1nc(SCC(=O)N2CCCc3ccccc32)c2oc3ccccc3c2n1	i	-2.4%	.
CC1=C(C(=O)OCCOC(C)C)C(c2cccnc2)C2=C(CCCC2=O)N1 (stereo unspecified)	i	-4.4%	0.34
Cc1ccc(C(=O)n2cnnc2N)cc1C	i	4.1%	0.07
Cc1cc(=O)oc(C)c1C(=O)NCC1COc2ccccc2O1 (stereo unspecified)	i	-3.7%	-0.18
COc1cccc(Cn2nnc(C(=O)Nc3cc(Cl)ccc3OC)c2N)c1	i	2.9%	-0.51
